# PrP 5UTR inh = suppresses PrP 5' UTR mRNA reporter expression; AID 488862; cell-based PrP 5' UTR mRNA reporter, plate reader; inhibition, % (test concentration not listed); hit rate 0.35% among 340,000;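 active means every replicate at 50% or more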;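 further: 0 = median of the neutral control wells; tested in H4 reporter cells; numbers are from one replicate; inactives centre near -14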
# Bead autofluor = compound fluorescence in toxin protease inhibitor counterscreen. compound autofluorescence counterscreen, microsphere flow cytometry; hits give high values. fluorescence intensity (no concentration beside the values). hit rate 3.1% among 360,000. AID 624483;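 active means at least 3 SD above the mean of all compounds, about 16000 in these data; inconclusive means too few beads counted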;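 further: 100 nL of 1 mM stock went into each well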
# ugtP null kill = kills S. aureus RN4220 lacking UgtP; growth inhibition, % (concentration not given with the values); S. aureus RN4220 ugtP deletion, OD600 growth, 16 h; some inactives read as strong as hits; hit rate 0.54% among 330,000;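 active means z-score under -3 and OD600 up to 0.15 on both plates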;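 further: plate controls were untreated wells for no effect and antibiotic for full effect; wells of about 80 µL received 100 nL stock; the first replicate is given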
# BJeLR lethal = kills HRASV12-expressing BJeLR cells. BJeLR (HRASV12) viability, CellTiter-Glo ATP luminescence, 48 h; reference of the scale not given here. inhibition, % (test concentration not listed). hit rate 0.17% among 300,000. AID 1554;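 active means replicate mean above 50%; inconclusive means above 50% but judged a plate artefact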;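 further: 50 nL library stock added to about 25 µL; numbers are from one replicate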
# Mtb hypoxia rep = Mtb hypoxia fluorescent reporter inhibition; hit rate 0.1% among 300,000; fluorescence inhibition, % (test concentration not listed); AID 1159583; M. tuberculosis hypoxia-regulated fluorescent reporter, fluorescence;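 active means 35 to 45% if threefold the growth effect, above 45% if 1.5-fold the growth effect; inactive means the rest, general growth blockers included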;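 further: wells of about 50 µL received 100 nL stock; 0% = vehicle wells and 100% = reference inhibitor wells; whole bacteria with a GFP reporter of the hypoxia response; strong numbers were not always called active; many hits fall short of the cut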
# Sa RN4220 lethal = S. aureus RN4220 growth inhibition; hit rate 0.33% among 330,000; inhibition, % (no concentration beside the values); OD600, 16 h; AID 1259311;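 active means z-score of -3 or lower and OD600 up to 0.18 on both plates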;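 further: plate controls were untreated cells for no effect and reference antibiotic for full effect; stock transfer was 100 nL into about 80 µL; one replicate is shown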
# Mtb hypoxia rep growth = further read-out of Mtb hypoxia rep, marked with its call; growth inhibition, %; measured here: M. tuberculosis growth (absorbance);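 0% = vehicle and 100% = reference antibiotic; read after six days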
# * hit, by the source's call; ? = inconclusive; / = no result given.
(1) CC1Cc2ccccc2N1C(=O)CSc1nnc(-c2ccc(S(=O)(=O)N3CCCC3)cc2)o1 (stereo unspecified)
(2) CSc1nncc(C(C)=NNc2ccccc2C)n1
(3) Cc1ccccc1NS(=O)(=O)c1ccc(C(=O)NNC(=O)c2ccccc2O)cc1
(4) COC(=O)c1c(-c2cccs2)csc1NC(=O)CN1CCOCC1
(5) CS(=O)(=O)N1CCN=C1SCc1ccccc1
(6) Cc1ccc(N2C(N)=C(C#N)C(c3ccsc3)C3=C2CC(C)(C)CC3=O)cc1 (stereo unspecified)
(7) Cc1ccccc1C(=O)NC1CCN(CC(=O)NC2CCCCC2)CC1
(8) Cc1ccccc1NC(=O)Cc1nnc(NC(=O)Nc2ccccc2F)s1

screen / no.	1	2	3	4	5	6	7	8
BJeLR lethal	4	/	0	0	4	0	-12	3
Mtb hypoxia rep	-4	9	12	7	-11	7	5	9
PrP 5UTR inh	-57	/	-18	-29	-19	-23	-31	-5
ugtP null kill	-17	-2	3	0	-1	7	-4	9
Sa RN4220 lethal	1.8	3.7	8.5	4.0	1.2	5.5	-0.8	2.3
Bead autofluor	20428*	/	?	3476	6439	2350	4947	3677
Mtb hypoxia rep growth	3	8	9	14	-14	10	2	6

(9) N#CC1(NC(=O)Cn2cc(C(F)(F)F)cc(Cl)c2=O)CCCCC1
(10) COc1ccc(N2CCN(S(=O)(=O)c3ccc4c(c3)N(C(C)=O)CCO4)CC2)cc1
(11) COCc1[nH]c(=S)[nH]c(=O)c1C
(12) CCNC(=O)Oc1ccc[nH]c1=O
(13) COc1cc(C(=O)NCc2ccc3[nH]c(C)cc3c2)cc(OC)c1OC
(14) CCc1cccc(NC(=O)C2CCCN(S(=O)(=O)c3cccnc3)C2)c1 (stereo unspecified)
(15) CC(C)(C)C(=O)Nc1cc(NC(=O)C(C)(C)C)cc(C(=O)Nc2c[nH]c(=O)[nH]c2=O)c1
(16) COC(=O)N/N=C\c1ccccc1OC/C=C/c1ccccc1

screen / no.	9	10	11	12	13	14	15	16
BJeLR lethal	3	-1	-4	-2	7	0	-10	11
Mtb hypoxia rep	3	-6	17	15	0	-3	3	/
PrP 5UTR inh	4	-8	-11	-18	-8	-7	/	-45
ugtP null kill	1	-3	6	1	11	-3	9	/
Sa RN4220 lethal	4.7	-2.8	1.1	5.4	2.0	0.6	-2.4	/
Bead autofluor	4209	5138	3198	4250	2596	5491	5586	5031
Mtb hypoxia rep growth	-12	-5	8	10	2	5	-2	/

(17) O=C(O)CCC(=O)Nc1sc2c(c1C(=O)NCc1ccccc1)CCCC2
(18) O=C(CC(=O)Nc1ccc(Cl)cc1)N/N=C\c1cccc(F)c1
(19) COCCNc1ccc(N2C(=O)C3CCCCC3C2=O)cc1[N+](=O)[O-] (stereo unspecified)
(20) O=c1c2ccccc2nc(-c2ccco2)n1-c1ccccn1
(21) Cc1cc(Nc2ccccc2)nc(NCc2ccccc2)n1
(22) O=C(Nc1ccccc1C(=O)N1CCN(Cc2ccccc2)CC1)c1ccc(F)cc1
(23) N/C(=N\OC(=O)COc1ccc([N+](=O)[O-])cc1)c1cccnc1
(24) CCc1c(C)nc2cc(-c3ccc(OC)cc3)[nH]n2c1=O

screen / no.	17	18	19	20	21	22	23	24
BJeLR lethal	2	6	-2	-10	7	-9	1	-3
Mtb hypoxia rep	2	/	5	/	0	7	/	8
PrP 5UTR inh	-20	-16	-9	-22	-24	-50	-19	-44
ugtP null kill	-5	/	-7	-1	-27	7	/	5
Sa RN4220 lethal	0.2	/	5.4	-1.1	-5.2	-2.4	/	1.4
Bead autofluor	3771	5993	4554	2862	2590	5702	2701	10309
Mtb hypoxia rep growth	0	/	-6	/	12	-2	/	15

(25) Cc1cc(OCC(=O)N2CCOCC2)ccc1NC(=O)C1CCCCC1
(26) CC(=O)c1ccc(NC(=O)CCOc2cc(C)ccc2C)cc1
(27) COc1ccc(CC(=O)Nc2ccc(C(N)=O)cc2)cc1
(28) O=C(NCC(c1ccco1)N1CCCCC1)c1ccc(OCc2ccccc2)cc1 (stereo unspecified)
(29) CCn1ncc(N2CCOCC2)c(Cl)c1=O
(30) Cc1ccccc1N=C1c2ccccc2C(=O)C1[N+](=O)[O-] (stereo unspecified)
(31) Cc1cc(N)nc2nc(C(F)(F)F)nn12
(32) COc1cc(N=Cc2c(CO)cnc(C)c2O)cc(OC)c1OC

screen / no.	25	26	27	28	29	30	31	32
BJeLR lethal	6	-4	1	8	18	-2	7	-4
Mtb hypoxia rep	4	6	-2	-2	5	5	7	7
PrP 5UTR inh	/	-66	-10	-31	10	-38	-1	-25
ugtP null kill	5	4	10	1	4	7	2	1
Sa RN4220 lethal	3.8	2.9	2.6	1.8	0.6	1.9	3.9	1.8
Bead autofluor	11233	4416	3751	4222	3687	4287	3245	4200
Mtb hypoxia rep growth	8	4	-2	12	0	0	1	11

(33) COc1ccc(/C=N/NC(=O)/C(=C/c2ccccc2)CCO)cc1
(34) CN1CCN(CCCCC(=O)c2ccccc2)CC1
(35) CC(C)(C)c1ccc(C(=O)NC(=O)COC(=O)c2ccc(Br)o2)cc1
(36) O=C(Nc1nnc(CCc2ccccc2)s1)c1ccco1
(37) CCCCN(C1CCS(=O)(=O)C1)S(=O)(=O)c1ccc(OC)c(OC)c1 (stereo unspecified)
(38) CCOC(=O)c1ccc(NS(=O)(=O)c2cc(-c3nnnn3CC)ccc2OC)cc1
(39) COc1cccc(NC(=O)c2ccccc2-c2ccccc2C(=O)O)c1
(40) COCCNCC(=O)Nc1nc(C)cs1

screen / no.	33	34	35	36	37	38	39	40
BJeLR lethal	-15	5	/	8	-7	5	-15	/
Mtb hypoxia rep	/	/	11	-1	5	3	/	-1
PrP 5UTR inh	-15	-4	-36	-28	-10	-6	-15	-5
ugtP null kill	/	3	5	-2	-1	2	4	7
Sa RN4220 lethal	/	4.1	4.0	8.1	1.1	0.9	0.9	5.8
Bead autofluor	2060	2619	4122	10146	?	19076*	3977	4420
Mtb hypoxia rep growth	/	/	4	10	0	11	/	6

(41) CC(C)OC(=O)C(=CC=Cc1ccccc1)NC(=O)c1ccccc1
(42) Cc1cccc(N(C)S(=O)(=O)c2csc(C(N)=O)c2)c1
(43) COc1ccc(O)c(C=Nc2cc(C)on2)c1
(44) COc1ccc(C2C(C(=O)NCc3ccco3)CCC(=O)N2c2ccc(OC)cc2)cc1 (stereo unspecified)
(45) CCn1c(-c2cc(-c3ccc(C)cc3)nc3ccccc23)n[nH]c1=S
(46) COc1ccc2oc(=O)c(C(=O)NCc3ccc(F)cc3)cc2c1
(47) O=[N+]([O-])c1cc(Br)ccc1NS(=O)(=O)c1ccccc1
(48) Cc1oc2ccc(OCc3ccc(F)cc3Cl)cc2c1C(=O)O

screen / no.	41	42	43	44	45	46	47	48
BJeLR lethal	/	6	4	5	0	-1	/	2
Mtb hypoxia rep	-2	16	-1	/	18	17	17	11
PrP 5UTR inh	/	-15	7	-10	-1	-32	-6	-11
ugtP null kill	-9	-5	4	12	1	2	-11	1
Sa RN4220 lethal	16	1.7	2.2	4.3	2.0	0.6	9.9	1.0
Bead autofluor	/	3905	22368*	2325	4038	3686	3528	3938
Mtb hypoxia rep growth	13	-3	7	/	-1	1	6	-4

(49) CC(C)(C)c1cccc(C=NO)c1O
(50) CCN1CCN(Cc2ccc(NC(=O)c3ccc(C)c(NC(=O)CC4NC(=O)C(Cc5ccccc5)NC4=O)c3)cc2C(F)(F)F)CC1 (stereo unspecified)
(51) CCOC(=O)C(Cc1c(F)cccc1Cl)c1ccnc2nc(N)nn12 (stereo unspecified)
(52) COc1cccc(/C=N/NC(=O)C(=O)NCc2ccco2)c1OC
(53) Cc1c(NC(=O)c2cc(-c3ccc(F)cc3)nc3ccccc23)c(=O)n(-c2ccccc2)n1C
(54) C=CCn1c(SCC(=O)Nc2cc(C)ccc2C)nnc1-c1cnccn1
(55) COc1ccc(C(=O)NCCn2ccc3ccccc32)c(OC)c1
(56) CCCC1Cc2c(sc3ncnc(N)c23)CO1 (stereo unspecified)

screen / no.	49	50	51	52	53	54	55	56
BJeLR lethal	/	/	-6	-9	/	8	-4	-24
Mtb hypoxia rep	7	-2	14	/	16	10	-6	/
PrP 5UTR inh	/	/	-17	-13	-19	-23	-104	-9
ugtP null kill	14	-15	4	/	8	6	1	0
Sa RN4220 lethal	-4.5	3.3	5.2	/	4.4	6.3	9.6	1.5
Bead autofluor	/	/	3094	2347	3631	4129	10678	3901
Mtb hypoxia rep growth	-8	1	11	/	12	8	-2	/

(57) Cc1nc(C)c(-c2csc(NCc3ccccc3)n2)s1
(58) COc1ccc(CC(=O)Nc2cccc(C(C)=NNC(=O)c3cccc([N+](=O)[O-])c3)c2)cc1
(59) COc1ccc(CC(NC(C)=O)C(=O)NC2CCN(C(=O)c3ccc(Cl)cc3)CC2)cc1 (stereo unspecified)
(60) Cc1ccc(S(=O)(=O)N2CCN(c3nccnc3C#N)CC2)cc1
(61) CCN(c1ccc(NC(=O)COC(=O)c2cccs2)cc1)C(C)C
(62) C=CCN1C(=O)C(Cc2cccc(Cl)c2)SC1=Nc1ccc(C(=O)O)cc1 (stereo unspecified)
(63) CCOc1ccccc1-c1nc(-c2ccc(NC(=O)Cc3ccccc3OC)cc2)no1
(64) Cc1ccc(C)c(N(CC(=O)NC(C)C)C(=O)CCC(=O)Nc2ccccn2)c1

screen / no.	57	58	59	60	61	62	63	64
BJeLR lethal	1	/	-17	-2	-1	-6	-22	0
Mtb hypoxia rep	-1	13	0	9	/	7	9	4
PrP 5UTR inh	-23	/	-21	7	-13	-8	4	-19
ugtP null kill	4	7	3	3	0	1	7	12
Sa RN4220 lethal	-0.9	9.6	3.2	6.9	1.2	15	-7.9	2.8
Bead autofluor	4391	/	4009	3862	3344	2225	3559	3892
Mtb hypoxia rep growth	5	12	2	7	/	-2	8	3

# In the list so far, four have a COOH group.
(17) O=C(O)CCC(=O)Nc1sc2c(c1C(=O)NCc1ccccc1)CCCC2
(39) COc1cccc(NC(=O)c2ccccc2-c2ccccc2C(=O)O)c1
(48) Cc1oc2ccc(OCc3ccc(F)cc3Cl)cc2c1C(=O)O
(62) C=CCN1C(=O)C(Cc2cccc(Cl)c2)SC1=Nc1ccc(C(=O)O)cc1 (stereo unspecified)

screen / no.	17	39	48	62
BJeLR lethal	2	-15	2	-6
Mtb hypoxia rep	2	/	11	7
PrP 5UTR inh	-20	-15	-11	-8
ugtP null kill	-5	4	1	1
Sa RN4220 lethal	0.2	0.9	1.0	15
Bead autofluor	3771	3977	3938	2225
Mtb hypoxia rep growth	0	/	-4	-2

# Complete entries as entered above. Order of values: BJeLR lethal	Mtb hypoxia rep	PrP 5UTR inh	ugtP null kill	Sa RN4220 lethal	Bead autofluor	Mtb hypoxia rep growth
# COc1ccc(CC(NC(C)=O)C(=O)NC2CCN(C(=O)c3ccc(Cl)cc3)CC2)cc1 (stereo unspecified) across the screens: -17	0	-21	3	3.2	4009	2
# Cc1nc(C)c(-c2csc(NCc3ccccc3)n2)s1 across the screens: 1	-1	-23	4	-0.9	4391	5
# Cc1ccc(S(=O)(=O)N2CCN(c3nccnc3C#N)CC2)cc1 across the screens: -2	9	7	3	6.9	3862	7
# CCN(c1ccc(NC(=O)COC(=O)c2cccs2)cc1)C(C)C across the screens: -1	/	-13	0	1.2	3344	/
# COc1ccc(CC(=O)Nc2cccc(C(C)=NNC(=O)c3cccc([N+](=O)[O-])c3)c2)cc1 across the screens: /	13	/	7	9.6	/	12

# Later entries.
(65) COc1cc(NC(=O)Cn2nc(-c3ccc(F)cc3)ccc2=O)ccc1-n1cnnn1
(66) O=C(CCNC(=O)N1CC(=O)Nc2ccccc21)Nc1cccc(Cl)c1
(67) CC(C)C[C@H](NC(=O)NCCC1=CCCCC1)C(=O)O
(68) COc1ccc(C(=O)Nc2ccc(Cl)cc2C(=O)N2CCCC(C)C2)cc1 (stereo unspecified)
(69) Cc1[nH]c2ccccc2c1C=NNC(=O)c1cccc(Br)c1

screen / no.	65	66	67	68	69
BJeLR lethal	-2	-16	9	-12	/
Mtb hypoxia rep	3	17	9	-9	11
PrP 5UTR inh	-19	-16	-14	-19	/
ugtP null kill	7	6	8	0	-4
Sa RN4220 lethal	15	3.2	4.2	12	-3.0
Bead autofluor	4242	5767	/	3289	/
Mtb hypoxia rep growth	8	12	17	-4	1
